SARS PLpro yeast = SARS-CoV PLP inhibition in yeast. S. cerevisiae expressing SARS-CoV PLpro, growth rescue; control for the full effect not named in the record. Potency, µM (series often up to 32.9 µM), for the others: top-dose activity, positive = growth rescue. 330,000 compounds, 0.19% hits. AID 485353; active means well fitted rising curve with a large enough effect; inconclusive means small, poorly fitted or top-dose-only effect; inactive means no such curve, though single readings can be large or run the other way; also: 0% is about no effect; nearly all actives have a fitted effect of over 55% in size; growth read by luminescence after 48 h
Cruzain inh Det = cruzain (T. cruzi) inhibition with detergent | purified cruzain, Z-FR-AMC fluorescence, 0.01% Triton | Potency, µM, for inactives: max response, negative = inhibition, most hits filed as inhibitors | 200,000 compounds, 0.43% hits | AID 1478;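 also: plate controls were neutral wells for no effect and buffer without enzyme for full effect; nearly all actives have a fitted effect of over 40% in size; top concentration of the series not given in the record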
Target sequence (P25779 123-467 limits assumed): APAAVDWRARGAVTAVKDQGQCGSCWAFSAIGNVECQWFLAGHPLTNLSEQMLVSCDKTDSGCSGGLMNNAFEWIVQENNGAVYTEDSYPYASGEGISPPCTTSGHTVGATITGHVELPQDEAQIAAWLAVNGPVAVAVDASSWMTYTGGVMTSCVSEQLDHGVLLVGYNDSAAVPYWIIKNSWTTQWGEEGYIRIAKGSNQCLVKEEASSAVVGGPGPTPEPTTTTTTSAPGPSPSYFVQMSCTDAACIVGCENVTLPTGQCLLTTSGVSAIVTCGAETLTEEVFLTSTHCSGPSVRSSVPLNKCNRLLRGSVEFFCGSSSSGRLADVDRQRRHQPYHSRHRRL
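Detergent-containing arm of a paired screen for aggregation-based inhibition: 0.01% Triton X-100 present. Cruzain at 1.5 nM cleaved 2 uM Z-FR-AMC at pH 5.5 with 5 mM DTT; AMC fluorescence gain over 60 s measured activity.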
NS1 inh = influenza NS1 inhibition; S. cerevisiae slowed by influenza A NS1, growth recovery by OD600; Potency, µM (series often up to 46.1 µM), without a hit: at the highest dose activity, positive = more growth; 270,000 compounds, 0.4% hits; AID 2326; active means well fitted rising curve with a large enough effect; inconclusive means small, poorly fitted or top-dose-only effect; inactive means no such curve, though single readings can be large or run the other way; also: nearly all actives have a fitted effect of over 50% in size
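Read-out: OD600 growth recovery of NS1-expressing budding yeast. Cells grown overnight at 30C in -URA glucose medium, washed, resuspended and diluted 1:100 in 2% galactose assay medium, pH 6.0. Same strain lacking NS1 served as positive control.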
RE007 growth inh = less growth of the S. pombe RE007 Vpr strain; S. pombe RE007 Vpr strain, BacTiter-Glo ATP luminescence, 24 h; control for the full effect not named in the record; 360,000 compounds, 0.21% hits; Potency, µM (titrated, usually from 92.2 µM), for inactives: at the top dose activity change, negative = less growth; active = well fitted falling curve with a large enough effect; inconclusive = small, poorly fitted or top-dose-only effect; inactive = no such curve, though single readings can be large or run the other way;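 also: % is scaled to controls: 0 for no effect and ±100 for the full control effect; nearly all actives have a fitted effect of over 50% in size; the assay follows cell death caused by Vpr and the record does not say whether a fall means rescue or toxicity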
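Fission yeast strain RE007, carrying one chromosomally integrated HIV-1 vpr copy, was seeded at OD 0.01 in PMG+AL medium with 23 nL pinned compound. After 24 h at 30 °C and 99% humidity, viability was read by BacTiter-Glo luminescence.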
Marburg entry inh = Marburg virus entry inhibition. Marburg virus pseudotyped entry inhibition, cell reporter; control for the full effect not named in the record; about a third of the inactives were read at about 46 µM. Potency, µM (top dose mostly 37.8 µM), inactives show top-dose activity change, negative = inhibition, usual class: inhibitors. 300,000 compounds, 1.8% hits; active = well fitted inhibition curve with a large enough effect; inconclusive = small, poorly fitted or top-dose-only effect, or effect the other way; inactive = flat fitted curve, though single readings scatter; tested in HEK293 cells; about a fifth of its hits are not listed in these tables; also: % is scaled to controls: 0 for no effect and ±100 for the full control effect; luciferase read-out
StopGo reporter = FMDV 2A StopGo reporter, luciferase signal | human cells with a luciferase reporter of 2A StopGo recoding; control for the full effect not named in the record | Potency, µM (highest dose often 57.9 µM), for the others: top-dose signal change, negative = less light | 410,000 compounds, 1.2% hits; active = well fitted falling curve with a large enough effect; inconclusive = small, poorly fitted or top-dose-only effect; inactive = no such curve, though single readings can be large or run the other way; tested in HEK293T cells; also: % is scaled to controls: 0 for no effect and ±100 for the full control effect; nearly all actives have a fitted effect of over 45% in size; luciferase light after 4 h
Cruzain noTriton = blocks cruzain activity in detergent-free assay. P25779. purified cruzain, Z-FR-AMC fluorescence, no detergent. Potency, µM, for inactives: max response, negative = inhibition, hits mostly inhibitors. 200,000 compounds, 2.3% hits. AID 1476;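 also: plate controls were enzyme without inhibitor for no effect and buffer without enzyme for full effect; nearly all actives have a fitted effect of over 40% in size; top concentration of the series not given in the record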
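Detergent-free condition (0.00005% Triton X-100) in acetate buffer pH 5.5 with DTT. 1.5 nM enzyme and compound were pre-mixed 15 min, then 2 uM Z-FR-AMC substrate added; reaction progress from fluorescence change between first and third reads (60 s).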
LASV entry inh = Lassa virus entry inhibition; Lassa virus pseudotype entry inhibition, cell reporter; control for the full effect not named in the record; Potency, µM (top dose mostly 37.9 µM), for the others: top-dose activity change, negative = inhibition, hits mostly inhibitors; 300,000 compounds, 1.2% hits; active means well fitted inhibition curve with a large enough effect; inconclusive means small, poorly fitted or top-dose-only effect, or effect the other way; inactive means flat fitted curve, though single readings scatter; tested in HEK293 cells; also: % is scaled to controls: 0 for no effect and ±100 for the full control effect; nearly all actives have a fitted effect of over 50% in size; luciferase read-out
* hit, by the source's call; ? = inconclusive; . = no result given; & = joins results of further samples; [ ] = remark or other dose. Unless noted, calls follow the shape of the dose curve; as a rule, active = well fitted curve in the direction sought with a large enough effect; inconclusive = small, poorly fitted or top-dose-only effect, or another doubt; inactive = no such curve, though single readings can be large; an effect the other way counts as inactive or inconclusive. Potency is read from the fitted curve at half-maximal effect.

SMILES	SARS PLpro yeast	Cruzain inh Det	NS1 inh	RE007 growth inh	Marburg entry inh	StopGo reporter	Cruzain noTriton	LASV entry inh
O=C(/C=C/c1ccc(Br)o1)OCc1ccccc1	-9%	-8.4%	-5%	-12%	1%	34%[activator]	-4%	-28%
CCN1CCN(c2ccc(NC(=O)c3ccco3)cc2Cl)CC1	-1%	.	-3%	-22%	1%[46.1 µM]	33%[activator]	.	25%[46.1 µM]
N#CC1=C(N)OC2=C(C(=O)CCC2)C1c1ccc(OC(=O)N2CCOCC2)cc1 (stereo not drawn)	7%	2.5%	-2%	12%	23%	.	1%	7%
O=C1c2ccccc2C(=O)N1CCCON1C(=O)c2ccccc2C1=O	6%	-2.8%	8%	15%	?	-9%	3%	0%
COc1ccc(C2N=C(N)N=C(N)N2c2ccccc2)cc1OC (stereo not drawn)	15%	-11%	?	4%	-18%	.	-7%	12%
Cc1ccc(NC(=O)Nn2cnnc2)cc1	5%	.	2%	1%	.	-16%	.	.
Oc1ccc(-c2nccc(-c3ccc(Cl)cc3Cl)n2)cc1	-3%	.	.	3%	-10%[46.1 µM]	10%	.	9%[46.1 µM]
O=C1CC(c2ccccc2)Sc2nc(-c3ccc(F)cc3)nn21 (stereo not drawn)	.	-2.5%	.	.	1%[46.1 µM]	-5%	-13%	8%[46.1 µM]
O=C(NC(N1CCCCCC1)C(Cl)(Cl)Cl)c1ccccc1Cl (stereo not drawn)	-13%	-10%	4%	-2%	?	-8%	5%	8%
Cc1cccc(C(=O)NNS(=O)(=O)c2ccc(F)cc2)c1O	-4%	.	4%	4%	14%	56%[activator]	.	5%
CC(C)(C)c1ccc(/C=N/Nc2nncn2N)cc1	-10%	.	-91%	-23%	?	34%[activator]	.	?
CCOc1ccc(C(=O)Nn2cnnc2)cc1	2%	6.4%	9%	3%	1%	11%	10%	20%
O=C(NCc1ccco1)C1CCCN1C(=O)Nc1ccc(Br)cc1 (stereo not drawn)	3%	.	5%	-10%	4%	-6%	.	8%
CCc1ccc(OCC(=O)Nc2cc(S(=O)(=O)CC)ccc2O)cc1	0%	-2.8%	3%	15%	-15%	-14%	0%	-1%
CCn1c(CNC(=O)COc2ccc(C(C)C)cc2)nnc1SCC(=O)Nc1ccccc1	11%	-1.6%	5%	8%	?	?	?	-30%
CCc1noc(C)c1C(=O)N(C)CC(=O)Nc1ccccc1C(F)(F)F	-6%	.	.	25%	-2%[46.1 µM]	-11%	.	1%
CC(C)(C)c1ccc(C(=O)c2cn[nH]c2-c2ccccc2O)cc1	-3%	.	-4%	3%	?	19%	.	-1%[46.1 µM]
CN(C(=O)COC(=O)CNC(=O)C12CC3CC(CC(C3)C1)C2)c1ccccc1	20%	.	-10%	4%	-13%	-13%	.	?
Cc1c(Cl)cccc1NC(=S)N1CCN(c2ccccn2)CC1	1%	.	2%	-11%	14%[46.1 µM]	4%	.	?
Clc1cccc(NCc2cn3cccnc3n2)c1	-8%	.	1%	-13%	4%[46.1 µM]	41%[activator]	.	-5%
COc1cccc(/C(N)=N/OC(=O)Cc2ccccc2[N+](=O)[O-])c1	0%	.	.	4%	?	35%[activator]	.	-25%[46.1 µM]
COc1ccc(CNC(=O)CCC(=O)Nc2cccnc2)cc1	.	.	19%	2%	-3%[46.1 µM]	-11%	.	-7%[46.1 µM]
CC(C(=O)OCn1nnc2ccccc2c1=O)N1C(=O)c2ccccc2C1=O (stereo not drawn)	7%	0.9%	-4%	9%	10%&10%	-1%	-6%	-10%
CCc1ccccc1NC(=O)Cn1ccn(-c2ccc(OC)cc2)c(=O)c1=O	0%	.	-4%	-1%	.	-15%	.	.
Cc1cc(C)cc(NC(=S)NCCSc2ccc(Cl)cc2)c1	-45%	?	-13%	-11%	-22%	-22%	?	0%
COc1ccc(OC)c(CN2CCC(N3CCC(C(=O)NC4CC4)CC3)CC2)c1	-4%	.	2%	-10%	.	-12%	.	.
Cc1ccc(N2CCN(C(=O)CCc3c(C)nc4c(c3C)c(=O)n(C)c(=O)n4C)CC2)c(C)c1	.	1.6%	.	.	4%[46.1 µM]	-3%	7%	27%[46.1 µM]
O=S(=O)(c1cccc(-c2csc(N/N=C/c3ccco3)n2)c1)N1CCOCC1	0%	.	5%	16%	.	28µM*	.	.
COCNc1nc(OCC#N)nc(N(C)C)n1	0%	7.4%	4%	-3%	?	16%	3%	13%
CCCCCCCC(=O)NNC(=O)c1c(O)c2ccccc2n(CCC)c1=O	28%	.	.	-12%	-10%	-12%	.	-14%
CC(Sc1nnc(C2CC2)n1C1CC1)C(=O)c1ccc(Br)cc1 (stereo not drawn)	2%	.	.	18%	-12%	-8%	.	-1%
Cc1cc(SCC(=O)NC(=O)NCc2ccco2)nc2c(C)cccc12	-8%	-8.2%	5%	10%	-8%	-8%	-21%	?
COc1cccc(N(CC(=O)NC(C)c2ccccc2)S(C)(=O)=O)c1 (stereo not drawn)	13%	2.0%	5%	-9%	1%	1%	-3%	-19%
N#Cc1nc(-c2ccco2)oc1N1CCC(C(N)=O)CC1	-5%	-0.9%	?	-10%	1%	-23%	4%	19%
O=C(Nc1ccccc1)N1CCN(S(=O)(=O)c2ccccc2)CC1	0%	.	1%	19%	23%[46.1 µM]	-9%	.	-3%
Cn1ncc2c(Nc3cccc(C(=O)O)c3)ncnc21	5%	1.6%	-16%	-11%	-2%	-1%	-16%	?
O=S(=O)(c1ccc2ccccc2c1)N(CC(O)COCc1ccco1)c1ccccc1 (stereo not drawn)	.	-1.9%	-7%	-3%	?	-19%	9%	?
CCn1c(SCC(=O)N/N=C/C(C)=C\c2ccco2)nnc1-c1ccccc1	-5%	-5.9%	8%	10%	0%[46.1 µM]	42%[activator]	-9%	8%
C=CC#CC[N+]1(CC#Cc2ccccc2)CCOCC1	-12%	25µM*	0%	7%	?	0%	-8%	10%
Cc1cccc2cc(CN(Cc3ccco3)C(=O)Nc3cccc(C#N)c3)c(Cl)nc12	-6%	-1.8%	26%	11%	?	.	?	?
COc1ccc(OC)c(NS(=O)(=O)Cc2ccccc2)c1	-8%	-2.1%	2%	.	-4%	.	32µM*	.
CCOc1ccc(NC(=O)CCCN2C(=S)NC(C)(C)CC2C)cc1 (stereo not drawn)	6%	1.7%	-12%	3%	0%	-11%	2%	-1%
Cc1cc(C)c2nc3c(c(C(=O)O)c2c1)CCC3	3%	4.4%	2%	9%	?	-19%	-3%	0%
CN(C)S(=O)(=O)c1ccc(N2CCCC2)c(C(=O)Nc2ccccc2OC(F)F)c1	-1%	.	.	-23%	?	-8%	.	?
O=C(Nc1nc(-c2ccccc2)cs1)C1CCCN(S(=O)(=O)c2cccc([N+](=O)[O-])c2)C1 (stereo not drawn)	-15%	-3.9%	25%	-14%	?	-21%	7.9µM*	?
CN(CC(=O)N1CC=C(c2ccccc2)CC1)S(=O)(=O)c1cnc[nH]1	-1%	6.3%	3%	0%	1%	-13%	11%	-13%
COc1cccc(NC(=O)CCCOc2cc(=O)n(C)c3ccccc23)c1	2%	-4.9%	3%	-10%	-16%	14%	18%	-7%
Cc1ccc(-n2nnnc2SCC(=O)N(CC(C)C)c2c(N)n(CC(C)C)c(=O)[nH]c2=O)cc1	5%	.	.	3%	24%[46.1 µM]	-9%	.	?
CN(C)S(=O)(=O)c1cccc(NC(=S)NC23CC4CC(CC(C4)C2)C3)c1	-2%	.	4%	8%	10%[46.1 µM]	-1%	.	?
COc1ccc(NS(=O)(=O)c2ccc(N)c(C(=O)O)c2)cc1	-2%	-0.2%	2%	6%	17%	-4%	-7%	22%
Cc1cccc(-c2noc(CNC(=O)c3ccccc3Br)n2)c1	.	-6.6%	.	.	.	-8%	-2%	-15%[46.1 µM]
CO/N=C\CC(=O)Nc1ccc(Oc2ccccc2)cc1	-6%	.	.	3%	?	-3%	.	?
COc1ccc(CCNC(=O)Cc2ccc(OCc3ccccc3)c(OC)c2[N+](=O)[O-])cc1OCc1ccccc1	7%	0.3%	?	-2%	?	-28%	-17%	?
Cc1nc2c(=O)[nH]c3ccccc3c2o1	-1%	.	1%	-16%	16%[46.1 µM]	-8%	.	-3%
O=C(O)CCC(=O)N1CCN(c2nc(-c3ccccc3)c3ccccc3n2)CC1	2%	.	-2%	-22%	.	-3%	.	.
CN(CC(=O)Nc1ccc(N2CCOCC2)cc1)C(=O)c1cccc(Cl)c1Cl	-2%	.	.	2%	26%	-8%	.	9%
CC(C)CCNC(=O)C1CCC(CNS(=O)(=O)c2ccc(Cl)cc2)CC1 (stereo not drawn)	2%	.	-1%	3%	.	-9%	.	.
O/N=C/c1cn(-c2ccccc2)nc1-c1cccnc1	-1%	.	.	-12%	0.79µM*	-14%	.	4%
CCOC(=O)c1nc2ccccc2c(=O)[nH]1	-4%	.	-3%	2%	5%[46.1 µM]	46%[activator]	.	18%
COc1cccc(OCC(=O)NNC(=O)C(=O)N2CCCC2)c1	15%	-0.1%	26%	4%	?	-13%	1%	5%
Remaining list, next part
SMILES	SARS PLpro yeast	Cruzain inh Det	NS1 inh	RE007 growth inh	Marburg entry inh	StopGo reporter	Cruzain noTriton	LASV entry inh
CCCC(=O)Nc1cc(C)c2c(=O)oc3ccccc3c2n1	-3%	.	-18%&-1%	-10%	.	-23%	.	.
CCCCC(=O)NS(=O)(=O)c1ccc(N=NN2CCOCC2)cc1	?	-2.3%	9%	-19%	-18%	30%	-3%	-4%
CCC(C)NC(=O)CC(c1ccc(OC)cc1)n1cccc1 (stereo not drawn)	8%	6.3%	-2%	5%	-2%	10%	0%	1%
CCc1cc2c(cc3c(=O)n(CCCC(=O)NCc4cccc(Cl)c4)ncn32)s1	.	-0.1%	.	.	-9%[46.1 µM]	-26%	-4%	.
CCOc1ccc(C2NC(=O)NC(c3ccccc3)=C2C(C)=O)cc1OC (stereo not drawn)	1%	.	9%	15%	.	-23%	.	.
CC(C)(C)C(=O)C[n+]1ccc(C(N)=O)cc1	24%	-1.7%	2%	-16%	14%&14%	5%	-5%	4%

Assay outcomes: PubChem, National Center for Advancing Translational Sciences (NCATS)
